Compound activity (PubChem)
Mtb hypoxia rep – Mtb hypoxia fluorescent reporter inhibition. M. tuberculosis hypoxia-regulated fluorescent reporter, fluorescence. fluorescence inhibition, % (test concentration not listed). hit rate 0.1% among 300,000;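 active = 35 to 45% if threefold the growth effect, above 45% if 1.5-fold the growth effect; inactive = the rest, general growth blockers included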;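 note: wells of about 50 µL received 100 nL stock; 0% = vehicle wells and 100% = reference inhibitor wells; whole bacteria with a GFP reporter of the hypoxia response; strong numbers were not always called active; many hits fall short of the cut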
RN4220 kill – kills Staphylococcus aureus RN4220; S. aureus RN4220 growth, OD600, 16 h; hit rate 0.33% among 330,000; inhibition, % (test concentration not listed);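 active = z-score of -3 or lower and OD600 up to 0.18 on both plates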;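 note: plate controls were untreated cells for no effect and reference antibiotic for full effect; stock transfer was 100 nL into about 80 µL; one replicate is shown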
Autofluor counter – flagged as autofluorescent in microsphere protease counterscreen; compound autofluorescence counterscreen, microsphere flow cytometry; hits give high values; fluorescence intensity (test concentration not listed); hit rate 3.1% among 360,000; AID 624483;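 active = at least 3 SD above the mean of all compounds, about 16000 in these data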;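 note: 100 nL of 1 mM stock went into each well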
ugtP null kill – compounds lethal to S. aureus RN4220 ugtP deletion mutant. OD600 growth, 16 h; some inactives read as strong as hits. growth inhibition, % (no concentration beside the values). hit rate 0.54% among 330,000;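 active = z-score under -3 and OD600 up to 0.15 on both plates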;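 note: plate controls were untreated wells for no effect and antibiotic for full effect; wells of about 80 µL received 100 nL stock; the first replicate is given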
PrP UTR inh – suppresses PrP 5' UTR mRNA reporter expression; cell-based PrP 5' UTR mRNA reporter, plate reader; inhibition, % (concentration not given with the values); hit rate 0.35% among 340,000; AID 488862;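 active = every replicate at 50% or more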;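 note: 0 = median of the neutral control wells; tested in H4 reporter cells; numbers are from one replicate; inactives centre near -14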
BJeLR viability – kills HRASV12-expressing BJeLR cells; AID 1554; hit rate 0.17% among 300,000; inhibition, % (concentration not given with the values); BJeLR (HRASV12) viability, CellTiter-Glo ATP luminescence, 48 h; reference of the scale not given here;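 active = replicate mean above 50%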;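 note: 50 nL library stock added to about 25 µL; numbers are from one replicate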
Mtb hypoxia rep growth – recorded beside Mtb hypoxia rep, whose call it bears; growth inhibition, %; measured here: M. tuberculosis growth (absorbance);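 0% = vehicle and 100% = reference antibiotic; read after six days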
Numbers without * were called inactive; . = no result given.

SMILES	Mtb hypoxia rep	Mtb hypoxia rep growth	RN4220 kill	Autofluor counter	ugtP null kill	PrP UTR inh	BJeLR viability
COc1ccc(C)cc1N(C(=O)c1snc(C(N)=O)c1N)C(C(=O)NC1CCCC1)c1ccc(F)cc1 (configuration not stated)	18.4	8.1	5.2	3782	4.6	-23.4	6.0
Cc1ccc(N(C(=O)Cn2nnc(-c3ccc(C)o3)n2)C(C(=O)NC2CCCC2)c2ccco2)cc1 (configuration not stated)	0.8	8.2	5.5	10983	-9.8	-19.4	-3.8
C/C=C/c1cc(CN2CCN(c3ccc(OC)cc3)CC2)c(O)c(OC)c1	-10.7	1.1	2.7	2540	1.1	-17.6	3.9
COC(=O)c1c(C(=O)OC)c(-c2ccc(Br)cc2)n2c1CS(=O)C2 (configuration not stated)	-3.8	-10.1	-3.0	3145	-6.6	-2.3	2.3
Nc1nnc(SCC(=O)Nc2cc(F)ccc2F)s1	-8.3	5.4	0.8	.	-0.4	-11.6	-1.1
Cc1n[nH]c(=O)c2c(NC(=O)CSc3nc4ccccc4c(=O)n3-c3ccc(OC(F)F)cc3)oc(C)c12	8.2	3.9	0.6	.	2.6	-15.2	-4.5
Cc1ccccc1CON=Cc1[nH]ncc1Br	0.1	4.0	2.9	.	9.2	.	.
O=C(NCCC1=CCCCC1)C1CCC(=O)N(Cc2cccc(C(F)(F)F)c2)C1 (configuration not stated)	9.5	10.7	0.9	5218	8.0	-7.1	-5.0
CC(=O)NC(C)c1ccc(C(=O)CSc2nnc(C3CC3)n2C2CC2)cc1 (configuration not stated)	6.2	1.1	4.4	6574	17.3	-14.8	.
Cc1cccc(C(=O)NC(C)c2ccc(-n3ccnc3)cc2)c1C (configuration not stated)	0.1	-0.5	1.7	5519	3.4	-13.8	-7.3
COC(=O)[C@H]1C[C@@H]1[C@H](NC(=O)c1cccnc1)c1ccccc1	.	.	.	3665	.	-19.1	5.4
Cc1cc(C)c(S(=O)(=O)N2CCN(S(=O)(=O)N3CCCCCC3)CC2)c(C)c1	-14.3	-18.3	0.6	3622	6.1	3.8	1.0
O=C(NO)C1CC2C=CC1C2 (configuration not stated)	-2.6	5.5	4.7	5479	4.6	-10.0	5.9
CN(C)S(=O)(=O)c1ccc(C(=O)OCC(=O)NCc2ccco2)cc1	1.2	-0.5	8.9	3988	4.3	-35.8	-5.2
Clc1ccc(-c2ccccc2)nn1	4.7	-8.4	4.5	4961	2.1	.	-1.3
Cc1ccccc1NC(=O)C1CC(=O)N(Cc2ccccc2)C1 (configuration not stated)	14.5	-1.5	1.5	4173	-0.1	-16.2	0.1
CCOC(=O)c1cc2c(=O)n3ccccc3nc2n(Cc2ccco2)c1=NC(=O)c1ccc(OC)cc1	5.8	0.6	-5.0	4201	5.4	-19.5	.
COC(=O)[C@]1(Cc2ccccc2)N[C@H](CN(C)C(=O)c2ccccc2)[C@@H]2C(=O)N(C)C(=O)[C@@H]21	1.7	6.1	-0.5	2971	9.3	-14.1	.
CC(OC(=O)CCc1ccccc1)C(=O)Nc1ncc(Cl)cc1Cl (configuration not stated)	5.9	3.4	3.4	6204	1.3	-21.7	-1.6
CC(=O)c1ccc(NS(=O)(=O)c2ccc(CC(C)C)cc2)cc1	-8.2	-13.0	0.3	11001	-10.9	-4.1	-4.5
N#CC(c1ccc(Cl)cc1)c1nc2ccccc2nc1C(F)(F)F (configuration not stated)	.	.	0.4	2741	-14.2	-34.8	8.6
Cc1ccc(N2C(=O)N(CC(=O)Nc3cccc(C)c3C)C(=O)C2C)cc1 (configuration not stated)	-2.5	4.4	0.0	4338	3.9	-11.6	-0.3
COc1ccc(C2(c3ccc(OC)cc3)NC(=O)N(CC(=O)Nc3ccccc3)C2=O)cc1	4.8	8.6	-3.8	3413	2.0	-18.5	-1.9
CCC(=O)N1CCN(C(C)=O)C1c1ccccc1 (configuration not stated)	11.0	11.5	2.2	3143	-4.8	-6.8	-2.0
COc1cccc(NC(=O)CSc2nnc3ccc(-c4ccccn4)nn23)c1	-3.0	1.5	0.0	5318	4.6	-17.2	1.4
CCc1nnc(NC(=O)C2CCCCN2S(=O)(=O)c2ccccc2)s1 (configuration not stated)	1.1	11.7	6.3	6883	1.8	3.0	.
O=C(CSc1oc(-c2ccco2)nc1S(=O)(=O)c1ccc(Cl)cc1)NCC1CCCO1 (configuration not stated)	7.5	14.0	1.0	5669	-0.7	-15.4	0.9
COCCOC(=O)C1=C(N)OC2=C(C(=O)CC(C)(C)C2)C1c1cccnc1 (configuration not stated)	8.9	7.3	2.5	8111	2.9	-12.4	-2.8
CCOC(=O)c1c(C)n(C)c2ccc(OCC(O)CN3CCN(C)CC3)cc12 (configuration not stated)	.	.	6.4	5503	-8.9	-19.9	-0.6
COCCN(CC(=O)Nc1cccc(C)c1C)C(=O)c1cc2c(s1)CCC2	7.9	7.9	-2.3	5364	-1.3	2.7	.
COc1cccc(C(C(=O)NC2CCCC2)N(C(=O)c2ccco2)c2ccccc2F)c1OC (configuration not stated)	20.7	7.1	4.4	4150	1.4	-18.7	5.6
CCOc1ncccc1C(=O)NCc1ccc(OC)cc1	5.5	7.2	-0.5	8773	-2.6	-25.6	-9.5
CCC(C)N(C(=O)c1csnn1)C(C(=O)NCc1ccc(F)cc1)c1ccco1 (configuration not stated)	-5.5	-3.1	3.8	10873	-8.6	-9.0	5.5
O=c1c2ccccc2nc2c3ccccc3c(NCc3ccco3)nn12	.	.	.	10570	.	-28.9	-3.7
Cc1ccc2c(c1)C1C(CO2)C(c2ccccc2)[C@]2(C)C(=O)NCC(=O)N12 (some centres not stated)	10.9	14.2	4.5	.	-1.8	.	.
CCOC(=O)C1=C(N)N(c2cc(S(=O)(=O)N3CCOCC3)ccc2Cl)C(=O)C1	7.6	-6.7	6.0	2051	7.7	-12.2	-13.4
CC1CCCC(NC(=O)CN(C)CC(=O)Nc2ccc(F)cc2)C1C (configuration not stated)	-0.6	5.6	2.8	4154	1.0	-13.0	.
CCOC(=O)c1ccccc1NC(=O)c1n[nH]c(=O)c2ccccc12	2.9	6.2	8.8	2509	4.4	-11.5	-0.3
COc1ccccc1NC(=S)NCc1ccco1	.	.	-1.2	2878	6.6	-25.8	2.7
O=C1CCCN1CCCNS(=O)(=O)c1ccc(Br)s1	13.1	3.9	4.1	5089	4.0	-26.4	14.0
CN(C)C(=O)c1cccn(Cc2cccc(C(F)(F)F)c2)c1=O	1.2	-4.4	4.0	4626	10.5	-8.4	6.8
Cc1[nH]c2ccccc2c1-c1nc(N)sc1C	-6.9	13.7	0.3	3501	-15.5	-43.4	-18.3
Cn1ncc([N+](=O)[O-])c1C(=O)Nc1ccc2c(c1)OCCO2	.	.	1.5	5088	-1.3	-31.9	5.5
CC(C)Oc1ccc(C(=O)NC2CCSc3ccccc32)cc1 (configuration not stated)	3.5	-1.0	6.0	5243	18.1	-11.7	8.1
CCOC(=O)C1=C(CC)OC(N)=C(C#N)C1c1cccs1 (configuration not stated)	5.5	5.1	6.0	6308	15.1	-16.2	0.8
O=C(C[n+]1ccc(/C=N/O)cc1)NC1CCCCC1	.	.	.	2120	.	-30.0	6.3
COc1ccc(/C=C2\CCCC3C2=NN(C(=O)CSc2n[nH]c(N)n2)C3c2ccc(OC)cc2)cc1 (configuration not stated)	16.2	6.8	3.6	4631	7.0	-3.0	-1.3
O=c1c(Cl)c(Cl)cnn1Cc1nnc(-c2ccc(Cl)cc2)o1	13.7	24.6	7.4	4447	-14.7	-45.1	4.3
CC12CCC(C(=O)Nc3ccc(Cl)cc3)([C@H](Br)C1=O)C2(C)C (some centres not stated)	-7.3	1.0	-1.3	4554	-0.2	.	-8.7
CCN(c1ccccc1)S(=O)(=O)c1ccc(C(=O)Nc2ccccc2OC)cc1	10.5	6.1	8.3	3105	6.0	-25.1	.
CN(C)S(=O)(=O)c1cccc(NC(=S)NCCCn2ccnc2)c1	-5.8	1.5	5.9	4566	4.5	-17.7	2.7
O=C(CC1S/C(=N/N=C/c2c[nH]c3ccc(OCc4ccccc4)cc23)NC1=O)Nc1ccccc1 (configuration not stated)	.	.	.	1991	.	-8.9	-11.1
COc1ccc(C(c2sc3ncnn3c2O)N2CC(C)OC(C)C2)cc1OC (configuration not stated)	3.1	-0.9	-16.0	4612	-5.9	-2.2	2.1
O=C(COc1cccc(NC(=O)c2cccs2)c1)c1ccc(F)cc1	1.4	-3.5	7.1	8980	0.8	-15.5	-0.5
CCS/C(N)=N/N=C/c1cc(C)ccc1O	.	.	.	3130	.	-80.4	0.0
O=C(CCl)Nc1ccc(-c2ccccc2)cc1	.	.	-2.7	3922	-5.3	-42.1	1.4
N#Cc1ccc(C23CC4(C2)C(CN(Cc2ccc(-c5ccccc5)cc2)C4c2ccccc2)C3c2ccc(Cl)nc2)cc1 (configuration not stated)	-3.7	7.2	7.8	.	0.6	.	.
CCOC(=O)C1=C(C)NC(=O)NC1c1ccc(-c2ccccc2F)o1 (configuration not stated)	0.0	4.7	-0.3	10703	-3.1	-36.0	-11.2
Cc1ccc(NC(=O)CNC(=O)c2ccc(C(C)(C)C)cc2)cc1S(=O)(=O)N1CCOCC1	-24.4	-4.5	1.4	3846	-5.4	-23.4	.
Cc1ccc(NC(=O)COC(=O)Cn2cnc3ccccc32)c([N+](=O)[O-])c1	10.0	1.5	3.5	3291	2.4	-8.8	9.9
The list goes on.
SMILES	Mtb hypoxia rep	Mtb hypoxia rep growth	RN4220 kill	Autofluor counter	ugtP null kill	PrP UTR inh	BJeLR viability
Cn1c(=O)c2c(nc(Br)n2CCc2ccccc2)n(C)c1=O	.	.	2.9	2561	5.0	-10.2	1.8
Cc1ccc(S(=O)(=O)NC(CC(=O)O)c2ccco2)cc1 (configuration not stated)	11.2	7.7	1.7	16531*	7.6	-18.1	11.1
COc1ccc(C2CC(c3ccc4ccccc4c3OC(C)=O)=NN2C(=O)/C=C/c2ccccc2)cc1 (configuration not stated)	-0.1	3.2	-0.5	2248	-0.5	-17.2	3.3
COc1ccccc1N1CCN(C(=O)CCNC(=O)Cn2ccc3ccccc3c2=O)CC1	-1.3	-9.8	0.7	5740	6.9	-8.7	4.0
COC(=O)c1[nH]c2cc(OC)ccc2c1N=CN(C)C	-3.5	-7.9	0.3	4485	3.3	-16.9	-3.5
N#Cc1nc(-c2ccco2)oc1NCCN1CCOCC1	5.0	9.9	0.4	9903	2.4	-21.2	-1.1
O=C(NCc1ccccn1)c1ccc(OC2CCN(Cc3cccs3)CC2)cc1	1.1	5.7	1.0	5848	7.0	-1.4	5.5
COc1ccc(S(=O)(=O)CCC(=O)N2CC(=O)N(CCc3ccccc3)C(=O)C2)cc1	.	.	3.5	4186	-1.8	-2.8	.
Cc1ccc(S(=O)(=O)NC2(C(F)(F)F)C(=O)Nc3c2c(=O)[nH]c(=O)n3-c2ccccc2)cc1 (configuration not stated)	2.9	3.6	8.0	2480	2.0	-19.1	-9.1
COc1ccc2c(Cl)c(-c3nnc(SCC(N)=O)n3C)sc2c1	8.4	1.0	2.2	4537	5.8	-42.0	3.4

Seven of these compounds, set out differently:
Order of results: Mtb hypoxia rep | Mtb hypoxia rep growth | RN4220 kill | Autofluor counter | ugtP null kill | PrP UTR inh | BJeLR viability
- COc1ccc(S(=O)(=O)CCC(=O)N2CC(=O)N(CCc3ccccc3)C(=O)C2)cc1
  . | . | 3.5 | 4186 | -1.8 | -2.8 | .
- Cc1ccc(S(=O)(=O)NC(CC(=O)O)c2ccco2)cc1 (configuration not stated)
  11.2 | 7.7 | 1.7 | 16531* | 7.6 | -18.1 | 11.1
- Cn1c(=O)c2c(nc(Br)n2CCc2ccccc2)n(C)c1=O
  . | . | 2.9 | 2561 | 5.0 | -10.2 | 1.8
- N#Cc1nc(-c2ccco2)oc1NCCN1CCOCC1
  5.0 | 9.9 | 0.4 | 9903 | 2.4 | -21.2 | -1.1
- COc1ccc2c(Cl)c(-c3nnc(SCC(N)=O)n3C)sc2c1
  8.4 | 1.0 | 2.2 | 4537 | 5.8 | -42.0 | 3.4
- COC(=O)c1[nH]c2cc(OC)ccc2c1N=CN(C)C
  -3.5 | -7.9 | 0.3 | 4485 | 3.3 | -16.9 | -3.5
- O=C(NCc1ccccn1)c1ccc(OC2CCN(Cc3cccs3)CC2)cc1
  1.1 | 5.7 | 1.0 | 5848 | 7.0 | -1.4 | 5.5
